Screens from PubChem BioAssay.
Menin MLL FP FL: displaces fluorescein MLL peptide from human menin. Fluorescence polarization, fluorescein-MLL peptide displacement from menin. FP activity change, % at 61.4 µM. 290,000 tested, under 10 active; inconclusive = falling polarisation curve, or a change in total fluorescence; inactive = total fluorescence flat and polarisation flat or rising; no compound was filed as active; the % refers to the polarisation; negative = inhibition;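 also: % of control where 0% means no effect; inhibitors lower the polarisation; unlabelled MLL peptide was the positive control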
PINK1 modulator: PINK1 expression modulation; PINK1 immunofluorescence, high-content cytometry, 24 h; Potency, µM (top dose mostly 76.6 µM), inactives show at the top dose activation (PINK1 increase), hits mostly activators; 410,000 tested, 0.2% active; active = well fitted activation curve with a large enough effect; inconclusive = small, poorly fitted or top-dose-only effect; inactive = flat fitted curve, though single readings scatter; cell line not stated here;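 also: potency is read from the fitted curve at half-maximal effect; % of control where 0% means no effect; nearly all actives have a fitted effect of over 65% in size; a mitochondrial uncoupler was the plate control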
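Compound titrations (5 concentrations, 24 h) on a stable cell line; DMSO and CCCP controls. Endpoint: fixed-cell PINK1 immunofluorescence with mitochondrial, cell and nuclear markers, scanned by microplate cytometer.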
TRPV1 potentiator: human TRPV1 potentiation | Q8NER1 | TRPV1-expressing cells, Fluo-8 calcium influx, capsaicin EC20 potentiation; host cell line not named in the record; control for the full effect not named in the record | potentiation, % at 8.33 µM | 320,000 tested, 0.02% active; active means potentiation above 80%; inconclusive means 30% to 80%; inactive means below 30%; also: 0% is about no effect
Target sequence (Q8NER1 whole entry, looked up): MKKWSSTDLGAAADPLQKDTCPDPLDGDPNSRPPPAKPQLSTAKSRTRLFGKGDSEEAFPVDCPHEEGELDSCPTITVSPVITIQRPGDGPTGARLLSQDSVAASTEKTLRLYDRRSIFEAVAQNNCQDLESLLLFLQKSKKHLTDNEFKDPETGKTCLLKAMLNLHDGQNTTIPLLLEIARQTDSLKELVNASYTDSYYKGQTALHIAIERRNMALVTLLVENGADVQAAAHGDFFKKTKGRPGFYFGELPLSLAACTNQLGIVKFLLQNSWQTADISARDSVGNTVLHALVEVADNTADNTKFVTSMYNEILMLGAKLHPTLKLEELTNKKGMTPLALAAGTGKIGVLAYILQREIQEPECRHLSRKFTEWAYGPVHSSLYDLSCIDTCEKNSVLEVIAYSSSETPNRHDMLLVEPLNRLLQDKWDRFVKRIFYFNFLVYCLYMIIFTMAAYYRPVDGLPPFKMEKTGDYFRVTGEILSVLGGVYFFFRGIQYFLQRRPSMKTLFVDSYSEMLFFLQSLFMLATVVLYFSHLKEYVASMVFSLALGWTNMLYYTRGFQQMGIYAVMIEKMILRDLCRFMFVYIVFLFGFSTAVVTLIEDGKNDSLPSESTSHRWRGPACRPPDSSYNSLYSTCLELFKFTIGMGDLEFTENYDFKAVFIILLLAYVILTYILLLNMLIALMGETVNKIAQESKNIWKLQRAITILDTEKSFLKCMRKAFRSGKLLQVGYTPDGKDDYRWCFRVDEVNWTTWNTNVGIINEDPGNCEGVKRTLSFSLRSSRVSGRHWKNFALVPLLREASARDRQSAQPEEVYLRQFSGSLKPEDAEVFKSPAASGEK
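TRPV1-expressing cells were cultured overnight at 35.5C and loaded with Fluo-8 calcium dye for 40 to 90 min at room temperature. After a 10 s baseline, compound was added and calcium influx was read kinetically for 3 min (ex 480/em 520 nm).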
TRPML1 ag: agonists of human TRPML1 channel; TRPML1-expressing cells, Ca2+ dye fluorescence, FDSS; host cell line not named in the record; reference of the full effect not given here; Q9GZU1; activation, % (test concentration not listed); AID 624414; 410,000 tested, 0.12% active; in the data active = activation above about 50%; inconclusive = about 30% to 50%; inactive = below about 30%; also: 0% is about no effect; the text of the record puts the active cut at 80%
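Calcium fluorescence on an FDSS kinetic reader gave the read-out. Tet-induced TRPML1-DL cells were plated overnight, dye-loaded (Ca8 with quencher, 45-90 min, room temperature, dark), then read 110 s after compound addition, and again 110 s after 4uM final 54-4 (EC80).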
ClpP mod: qHTS Assay for Activators of ClpP; 340,000 tested, 1.9% active; purified B. subtilis ClpP, FRET peptide cleavage, 20 min; Potency, µM (doses to about 57.5 µM), without a hit: at the highest dose activity change, negative = active; ATP-dependent Clp protease proteolytic subunit (Bacillus subtilis (strain 168)), P80244; AID 651965, 2013; active = well fitted falling curve with a large enough effect; inconclusive = small, poorly fitted or top-dose-only effect; inactive = no such curve, though single readings can be large or run the other way; also: potency is read from the fitted curve at half-maximal effect; the source files actives as falling curves though it sought activators and does not explain the sign; nearly all actives have a fitted effect of over 65% in size; many hits overshoot -100%
Target sequence (P80244 whole entry, looked up): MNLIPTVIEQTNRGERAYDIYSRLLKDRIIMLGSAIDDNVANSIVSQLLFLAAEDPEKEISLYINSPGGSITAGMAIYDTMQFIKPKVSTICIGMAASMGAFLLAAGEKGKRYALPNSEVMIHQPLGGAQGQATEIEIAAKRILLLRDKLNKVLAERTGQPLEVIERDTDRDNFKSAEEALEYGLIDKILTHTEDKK
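Buffer: 100 mM Tris/HCl pH8, 100 mM KCl, 0.05% low protease BSA, 2.5% glycerol, 0.01% Tween-20. ClpP 10 microg/mL final; 20 min RT; delta FRET normalized to ADEP and DMSO controls.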
Sfp PPTase inh: blocks B. subtilis Sfp PPTase activity. Q9F4F7. Biochemical Sfp PPTase activity, qHTS. Potency, µM, without a hit: max response, negative = inhibition, usual class: inhibitors. 310,000 tested, 3.5% active. AID 1490; active = well fitted inhibition curve with a large enough effect; inconclusive = small, poorly fitted or top-dose-only effect, or another doubt; inactive = no such curve, though single readings can be large or run the other way;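 also: the enzyme is Sfp with the accession as filed and its product quenches rhodamine fluorescence; potency is read from the fitted curve at half-maximal effect; 0% = enzyme reaction without inhibitor and -100% = no enzyme wells; top concentration of the series not given in the record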
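Step 1, compound plus 15 nM Sfp-PPTase, 15 min, room temperature. Step 2, add rhodamine-CoA (5 uM) and BHQ-2-YbbR (12.5 uM). Step 3, read 525/598 nm fluorescence at 0 and 30 min.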
TRPML1 inh: blocks the human TRPML1 channel | Q9GZU1 | TRPML1-inducible cells, Ca2+ dye fluorescence, FDSS; hits give low values; inhibition of EC80 agonist-evoked calcium signal | activity change, negative = inhibition, % (concentration not given with the values) | 390,000 tested, 0.02% active; in the data active means activity change below about -50%; inconclusive means about -30% to -50%; inactive means above about -30%;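 also: stimulus is agonist 54-4 at its EC80 concentration; % is scaled to controls: 0 for no effect and ±100 for the full control effect; compound concentration not given in the record; the text of the record puts the active cut at -80%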
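Calcium fluorescence in TRPML1-DL cells induced overnight with Tet: a 110 s read after compound pin addition, then a 110 s antagonist read after challenge with 54-4 at 4 uM final (EC80).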
An asterisk follows results filed as active; ? = inconclusive; nt = no result given; & = joins results of further samples; [ ] = another dose, or the depositor's remark.

mol,Menin MLL FP FL,PINK1 modulator,TRPV1 potentiator,TRPML1 ag,ClpP mod,Sfp PPTase inh,TRPML1 inh
CCOc1ccc(-n2c(=O)c3sccc3n(CC(=O)NC3CCCCC3)c2=O)cc1,2.1,14.0%,3.4,-0.1,nt,?,38.5
S=C(NCc1ccco1)Nc1ccccn1,0.9,-1.7%,10.8,0.2,nt,-7.6%,27.9
CC1(C)CC(=O)C2=C(C1)Oc1ncn(Cc3ccco3)c(=N)c1C2c1ccccc1 (stereo not drawn),0.0,-0.5%,-9.6,-0.3,-0.6%,-7.0%,-9.2
COC(=O)c1nn(-c2ccccc2)c2nnc(Cc3ccc(C)cc3)c(=O)n12,5.0,2.6%,-3.6,0.1,-2.1%,3.0%,-15.9
Cc1ccnc(NC(=O)COc2ccc3oc4c(c3c2)CCCC4)c1,4.6,5.9%,-2.9,0.7,-4.6%,?,30.1
Cc1ccc(C)c(N2CCN(C(=O)CCc3nc(-c4ccccc4C(F)(F)F)no3)CC2)c1,nt,-0.5%,nt,1.5,-1.2%,nt,34.6
O=C(O)c1ccc(N2C(=O)c3[nH]nc(-c4ccccc4)c3C2c2ccccc2)cc1 (stereo not drawn),-1.2,-0.9%,-0.6,1.4,0.7%,7.3%,33.8
C[C@H](O)[C@@H]1C(=O)N2CCc3c([nH]c4ccccc34)[C@@H]2C[C@@H]1N(C)C(=O)Nc1cccc2ccccc12,nt,0.0%,nt,0.3,4.8%,nt,nt
O=C(/C=C/c1cn(-c2ccccc2)nc1-c1cccnc1)NCCN1CCOCC1,-1.2,-0.7%,-2.7,0.4,nt,14.2%,15.2
COC(=O)C1N2C(=O)[C@@H](NC(=O)COc3ccccc3)[C@H]2SC1(C)C (stereo partly drawn),nt,0.6%,nt,-0.4&-0.5,1.5%&1.5%,nt,-16.8
O=C(O)C1CCCCN1C(=O)c1ccc(S(=O)(=O)N2CCCC2)cc1 (stereo not drawn),nt,-2.8%,9.0,0.5,nt,nt,40.1
Fc1cccc(Cn2cc(C(=S)N3CCCCC3)c3ccccc32)c1,1.0,-0.1%,-1.8,2.3,-1.9%,4.0%,42.1
COc1ccc(NS(=O)(=O)c2ccc(OCC(=O)N3CCOCC3)cc2)cc1,0.7,nt,-2.5,4.4,0.3%,6.8%,13.9
Cc1nc(S(=O)(=O)c2ccc(Cl)cc2)c(NCc2ccccc2)o1,2.4,0.8%,1.2,0.2,0.9%,-16.8%,9.2
CCCn1c(SCC(=O)c2c[nH]c3ccccc23)nnc1-c1ccncc1,3.9,1.0%,6.1,-0.5,-1.5%,9.2%,2.5
Cn1c(NCc2ccccc2)nc2c1c(=O)n(Cc1ccccc1)c(=O)n2C,-0.4,2.0%[38.3 µM],-13.9,-0.7,-1.2%,-9.8%,12.7
Cc1cc(NC(=O)CSc2nc3c(C)cccc3cc2C#N)no1,?,?,3.2,3.8,?,14.6%,18.7
COc1ccc(N2CC(C(=O)Nc3c4c(nn3-c3ccc(OC)cc3)CS(=O)(=O)C4)CC2=O)cc1 (stereo not drawn),-1.5,-2.9%,5.6,0.0,1.8%,3.6%,-14.0
CC12CCC(C(=O)NCCCN3CCOCC3)(C(Br)C1=O)C2(C)C (stereo not drawn),1.7,0.5%,7.7,0.2,nt,3.1%,-9.5
O=C(OCC(=O)c1ccccc1Br)c1ccccn1,-5.6,-0.6%,14.8,0.7,-0.9%,56.2µM*,25.2
Cc1nc(C)c(-c2ccn(S(=O)(=O)c3ccc(Cl)cc3)n2)o1,-1.0,0.7%,-1.4,1.4,nt,14.9%,0.3
COC(=O)c1ccc(NC(=S)N2CCN(C(=O)c3ccco3)CC2)cc1,nt,1.0%,-0.8,0.6,0.1%,44.7µM*,19.1
O=C(Nc1nnc(-c2ccccc2)s1)c1cccc(S(=O)(=O)N2CCOCC2)c1,1.2,-3.1%,-3.1,-0.5,-6.1%,2.8%,8.9
O=C(O)c1cccc(N2C(=O)C=CC2=O)c1,nt,-1.1%,nt,-0.3,-3.4%,nt,-3.0
O=C(Nc1ccc(F)cc1)c1cc(-c2ccccn2)nc2c(Cl)cccc12,-8.2,6.6%,-8.2,0.1,-4.1%,-1.1%,-2.8
O=C1CCCN1CCCNc1nc2c(S(=O)(=O)c3ccc(Br)cc3)nnn2c2ccccc12,nt,?,17.1,0.8,-22.2%,8.3%,-10.0
COC(=O)c1ccc(NC(=O)COc2ccccc2OC)cc1,5.1,1.6%,-0.8,-0.7,-0.5%,13.8%,2.6
COC(=O)c1ccc(CSc2nc3ccccc3s2)o1,-1.2,6.0%[38.3 µM],0.7,0.2,0.2%,-11.6%,11.0
Cc1occc1C(=O)NNC(=O)c1ccccc1F,1.9,-1.3%,-8.7,1.3,-1.8%,19.7%,-28.0
Cn1cc(S(=O)(=O)NC[C@H]2O[C@@H](n3cnc4c(N)ncnc43)[C@H](O)[C@@H]2O)cn1,nt,0.5%,nt,-0.1,-3.2%,nt,3.0
CCc1cccc(C)c1NC(=O)CN(C)S(=O)(=O)c1ccc(-c2ccc(=O)[nH]n2)s1,-0.5,0.4%,-20.2,-0.7,-11.0%,9.3%,3.5
N/C(=N\OC(=O)Cc1ccccc1)c1ccccn1,-0.9,-0.5%,2.8,-1.0,-0.7%,14.4%,-1.1
O=C(c1ccccc1)[C@H]1CC=CC[C@H]1C(=O)O,2.9,0.6%,4.0,-0.5,1.2%,12.5%,6.2
O=S1(=O)CCO[C@H]2Cc3ccccc3[C@H]2N1Cc1cccc(C(F)(F)F)c1,8.0,4.6%,-27.8,2.2&-0.5,-3.1%&2.4%,16.2%,24.1
CC1=NN(c2ccc(Br)cc2)C(=O)/C1=C/c1ccc(-c2ccccc2C(=O)O)o1,1.9,0.5%,9.1,-0.1,-7.2%,5.1%,0.3
Fc1ccc(NC(=S)Nc2cccnc2)cc1,1.4,-0.4%,-2.5,0.5,nt,?,-18.2
COc1ccc(/C=C/C(=O)NCC(=O)N/N=C(/C)c2ccc(Cl)cc2)cc1,-2.4,7.2%,5.8,-0.1,2.1%,-14.1%,4.3
CCOc1cc(N2CCOCC2)c(OCC)cc1NC(=O)c1ccc(OC(C)C)cc1,-4.1,1.8%,-0.5,1.7,nt,8.8%,44.8
N#C/C(=C\c1ccc(Cl)s1)C(=O)N1CCN(c2ccccc2)CC1,2.9,1.8%,-1.0,-0.5,?,2.3%,18.2
C/C(N)=C(/C#N)C(=O)COC(=O)C(c1ccccc1)c1ccccc1,14.7,4.8%,15.1,-0.6,0.0%,3.5%,10.2
Cc1nc(CS(=O)c2ccc(Cl)cc2)cc(N2CCOCC2)n1 (stereo not drawn),5.1,-0.2%,-6.2,-0.3,-1.3%,9.0%,5.2
Cc1ccc([N+](=O)[O-])cc1S(=O)(=O)Nc1ccc(C(=O)N2CCN(C(=O)c3ccco3)CC2)cc1,nt,0.6%,3.8,0.5,0.4%,nt,9.4
CC1CN(C2CCCCC2)C(=S)NC1=O (stereo not drawn),nt,3.0%,nt,-0.4,nt,nt,3.1
COc1cccc(-c2cnc3c(NC=O)cc(-c4cccc(C(=O)N(C)C)c4)cn23)c1,nt,2.9%,nt,-0.3,-20.9%,nt,nt
Cc1cccc(C(=S)N2CCOCC2)n1,nt,0.9%,-7.4,1.8,0.0%,nt,8.6
CCc1ccc(NC(=O)C(=O)N/N=C(\C)CC(=O)NCCOC)cc1,-3.4,2.1%,0.6,-0.3,nt,4.9%,-4.2
CCCCc1nc2cc(C(=O)NCc3cn(C)nc3C)ccc2o1,nt,-0.1%,5.5,-0.8,-1.2%,8.2%,1.9
Cn1c(NNC(=O)c2ccccc2F)cc(=O)n(C)c1=O,0.8,-0.4%,0.1,0.2,1.8%,-10.9%,3.1
COc1ccc(S(=O)(=O)N2CCN(CC(=O)Nc3cccc(F)c3)CC2)cc1,0.2,-4.2%,-11.6,-0.6,-1.3%,5.9%,26.1
COCCN1C(=O)c2ccccc2C(C(=O)NCCN(C)C)C1c1ccc(F)cc1 (stereo not drawn),0.7,-2.4%,-12.6,2.5,-3.1%,7.3%,-23.5
Cc1ccc(Nc2n[nH]c(C)c2[N+](=O)[O-])cc1,2.1,2.9%,-2.0,0.3,?,1.7%,7.2
CCOC(=O)c1[nH]ncc1CN1CCCC(C(=O)c2cc(Cl)ccc2OC)C1 (stereo not drawn),2.8,1.0%,13.4,-0.6,-17.8%,1.2%,-12.1
Cc1ccc(-n2[nH]c(C)c(C=Nc3ccc4[nH]c(=O)[nH]c4c3)c2=O)cc1C,2.4,-3.2%,9.0,1.0,1.5%,2.7%,31.7
O=C(Nc1ccc(-c2nnc(-c3ccco3)o2)cc1)C(c1ccccc1)c1ccccc1,-0.2,2.8%,-2.2,0.0,28.2µM*,7.9%,5.6
CCN(CC)c1cc(Cl)nc(N)n1,3.1,0.2%,3.0,1.4,1.0%,-12.4%,20.7
CCNC(=O)NC(=O)C(C)OC(=O)Cc1coc2cc3c(cc12)CCC3 (stereo not drawn),3.1,1.4%,-0.6,-0.7,0.9%,-21.3%,-13.9
Cc1ccc(CCNC(=O)C2COc3ccccc3C2)cc1 (stereo not drawn),nt,-0.8%,nt,-1.2,-2.4%,nt,-14.7
CC(=O)Nc1ccc(NS(=O)(=O)c2c(C)nc3sccn3c2=O)cc1,nt,1.5%,nt,-0.8,0.5%,nt,-3.4
CC(C)(C)N(NC(=O)OCc1ccccc1)C(=O)c1ccccc1Cl,nt,-0.5%,-9.7,2.1,1.0%,16.5%,-4.7
CCOC(=O)N1CCC2(CC1)OC(=O)C(C)=C2C(=O)NCc1cccc(F)c1,nt,0.8%,nt,1.0,0.6%,nt,8.1

(list continues)
mol,Menin MLL FP FL,PINK1 modulator,TRPV1 potentiator,TRPML1 ag,ClpP mod,Sfp PPTase inh,TRPML1 inh
CC(C)Cn1c(SCC#N)nc2ccccc2c1=O,3.4,0.7%&0.4%,-8.2,-1.0&-0.9,0.6%&-0.3%,4.7%,-2.1
COc1ccc(CC(=O)N2CCN(c3ccccc3F)CC2)cc1OC,-1.4,-0.2%,-14.5,-0.6,nt,12.6%,8.8
CCCSc1ncc(Cl)c(C(=O)Nc2scc(-c3ccc(C)cc3)c2C(=O)OCC)n1,nt,2.6%,nt,0.6,1.6%,nt,-15.8
Cc1ccc(CSCCC(=O)NCc2ccc(F)cc2Cl)cc1,nt,-0.9%,nt,2.1,-1.5%,nt,67.2
Cc1ccc(NC(=O)C2CCN(C(=O)[C@@H]3Cc4ccccc4CN3)CC2)c(C)c1,-0.6,1.6%,-10.3,0.3,0.9%,1.6%,6.9

The order is random; 4.4% or so of the library scored in one or more.
